Cruzain noTriton: inhibitors of Trypanosoma cruzi cruzain without detergent. AID 1476. 2.3% of 200,000 active. purified cruzain, Z-FR-AMC fluorescence, no detergent. Potency, µM, without a hit: max response, negative = inhibition, usual class: inhibitors; active = well fitted curve in the direction sought with a large enough effect; inconclusive = small, poorly fitted or top-dose-only effect, or another doubt; inactive = no such curve, though single readings can be large; an effect the other way counts as inactive or inconclusive;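 also: plate controls were enzyme without inhibitor for no effect and buffer without enzyme for full effect; nearly all actives have a fitted effect of over 40% in size; top concentration of the series not given in the record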
Target sequence (P25779 123-467 limits assumed): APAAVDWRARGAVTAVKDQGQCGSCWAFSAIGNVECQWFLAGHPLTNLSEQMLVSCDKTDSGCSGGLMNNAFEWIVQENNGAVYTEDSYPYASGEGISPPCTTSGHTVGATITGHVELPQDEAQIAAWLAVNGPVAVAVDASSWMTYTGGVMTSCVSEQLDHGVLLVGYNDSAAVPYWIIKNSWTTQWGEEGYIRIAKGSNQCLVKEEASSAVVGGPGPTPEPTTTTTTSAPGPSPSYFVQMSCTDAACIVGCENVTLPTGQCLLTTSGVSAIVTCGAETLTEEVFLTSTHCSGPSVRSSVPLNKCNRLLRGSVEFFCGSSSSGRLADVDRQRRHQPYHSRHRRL
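Detergent-free condition (0.00005% Triton X-100) in acetate buffer pH 5.5 with DTT. 1.5 nM enzyme and compound were pre-mixed 15 min, then 2 uM Z-FR-AMC substrate added; reaction progress from fluorescence change between first and third reads (60 s).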
LASV entry inh: inhibitors of Lassa virus binding or cell entry. AID 540256. Lassa virus pseudotype entry inhibition, cell reporter; control for the full effect not named in the record. Potency, µM (series often up to 37.9 µM), inactives show top-dose activity change, negative = inhibition, most hits filed as inhibitors. 1.2% of 300,000 active; active means well fitted inhibition curve with a large enough effect; inconclusive means small, poorly fitted or top-dose-only effect, or effect the other way; inactive means flat fitted curve, though single readings scatter; tested in HEK293 cells; also: % is scaled to controls: 0 for no effect and ±100 for the full control effect; nearly all actives have a fitted effect of over 50% in size; luciferase read-out
Cruzain Triton: cruzain (T. cruzi) inhibition with detergent; Potency, µM, inactives show max response, negative = inhibition, most hits filed as inhibitors; 0.43% of 200,000 active; P25779; AID 1478; purified cruzain, Z-FR-AMC fluorescence, 0.01% Triton; active = well fitted curve in the direction sought with a large enough effect; inconclusive = small, poorly fitted or top-dose-only effect, or another doubt; inactive = no such curve, though single readings can be large; an effect the other way counts as inactive or inconclusive;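 also: plate controls were neutral wells for no effect and buffer without enzyme for full effect; nearly all actives have a fitted effect of over 40% in size; top concentration of the series not given in the record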
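Sodium acetate buffer (100 mM, pH 5.5) containing 5 mM DTT and 0.01% Triton X-100 hosted 1.5 nM cruzain and test compound for 15 min at room temperature. Cleavage of 2 uM Z-FR-AMC was then tracked by fluorescence.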
Marburg entry inh: inhibitors of Marburg virus binding or cell entry. Marburg virus pseudotyped entry inhibition, cell reporter; control for the full effect not named in the record; about a third of the inactives were read at about 46 µM. Potency, µM (top dose mostly 37.8 µM), for inactives: top-dose activity change, negative = inhibition, usual class: inhibitors. 1.8% of 300,000 active. AID 540276; active = well fitted inhibition curve with a large enough effect; inconclusive = small, poorly fitted or top-dose-only effect, or effect the other way; inactive = flat fitted curve, though single readings scatter; tested in HEK293 cells; about a fifth of its hits are not listed in these tables; also: % is scaled to controls: 0 for no effect and ±100 for the full control effect; luciferase read-out
NS1 inh: influenza NS1 inhibition; S. cerevisiae slowed by influenza A NS1, growth recovery by OD600; Potency, µM (series often up to 46.1 µM), without a hit: top-dose activity, positive = more growth; 0.4% of 270,000 active; AID 2326; also: actives are rising curves; nearly all actives have a fitted effect of over 50% in size
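S. cerevisiae expressing influenza A NS1, grown in glucose, washed, then diluted 1:100 into pH 6.0 -URA galactose medium with 23 nl compound. Growth recovery read as OD600; NS1-free strain serves as control.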
StopGo reporter: lowers the luciferase signal of an FMDV 2A StopGo reporter; human cells with a luciferase reporter of 2A StopGo recoding; control for the full effect not named in the record; Potency, µM (titrated, usually from 57.9 µM), for the others: at the top dose signal change, negative = less light; 1.2% of 410,000 active; AID 1159524; active = well fitted falling curve with a large enough effect; inconclusive = small, poorly fitted or top-dose-only effect; inactive = no such curve, though single readings can be large or run the other way; tested in HEK293T cells; also: % is scaled to controls: 0 for no effect and ±100 for the full control effect; nearly all actives have a fitted effect of over 45% in size; luciferase light after 4 h
SARS PLpro yeast: blocks SARS-CoV papain-like protease in a yeast assay; 0.19% of 330,000 active; S. cerevisiae expressing SARS-CoV PLpro, growth rescue; control for the full effect not named in the record; Potency, µM (series often up to 32.9 µM), for the others: at the highest dose activity, positive = growth rescue; also: 0% is about no effect; nearly all actives have a fitted effect of over 55% in size; growth read by luminescence after 48 h
RE007 growth inh: less growth of the S. pombe RE007 Vpr strain; S. pombe RE007 Vpr strain, BacTiter-Glo ATP luminescence, 24 h; control for the full effect not named in the record; Potency, µM (highest dose often 92.2 µM), for inactives: at the top dose activity change, negative = less growth; 0.21% of 360,000 active; active = well fitted falling curve with a large enough effect; inconclusive = small, poorly fitted or top-dose-only effect; inactive = no such curve, though single readings can be large or run the other way;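 also: % is scaled to controls: 0 for no effect and ±100 for the full control effect; nearly all actives have a fitted effect of over 50% in size; the assay follows cell death caused by Vpr and the record does not say whether a fall means rescue or toxicity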
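Fission yeast RE007 carrying one integrated HIV-1 vpr copy, seeded at OD 0.01 in PMG+AL medium with 23 nL pinned compound. Grown 24 h at 30 degrees; viability read by BacTiter-Glo luminescence after 5 min.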
The depositor's hits bear a star; ? = inconclusive; . = not tested or not shown; [ ] = remark or other dose. Unless noted, calls follow the shape of the dose curve; as a rule, active means well fitted rising curve with a large enough effect; inconclusive means small, poorly fitted or top-dose-only effect; inactive means no such curve, though single readings can be large or run the other way. Potency is read from the fitted curve at half-maximal effect.

SMILES	Cruzain noTriton	LASV entry inh	Cruzain Triton	Marburg entry inh	NS1 inh	StopGo reporter	SARS PLpro yeast	RE007 growth inh
Cc1cccc(N/C(N)=N/c2nc(C(F)(F)F)cc(C(F)(F)F)n2)c1	.	.	.	.	1%	-14%	0%	-2%
CCc1ccccc1NS(=O)(=O)c1ccc(NC(=O)N2CCCC2)cc1	0%	-16%[46.1 µM]	-2.1%	.	.	0%	.	.
C/C(=N\NC(=O)CSCc1ccccc1Cl)c1cccc(NC(=O)c2ccccc2)c1	-4%	-17%	-4.6%	?	1%	29%	5%	21%
CCOc1cc(S(=O)(=O)Nc2ccccc2CC)ccc1Cl	-9%	-7%	-5.3%	-26%	-84%	9%	-21%	12%
CCCN(C(=O)c1ccc(N2CCCC2=O)cc1)C1CCS(=O)(=O)C1 (stereo not given)	.	4%	.	2%	.	-15%	4%	10%
O=C(N/N=C/c1ccncc1)c1cc2c(ccc3ccccc32)o1	-1%	-17%	-6.1%	?	-4%	-24%	-5%	-8%
CC(=O)N1N=C(c2ccccc2OC(=O)/C=C/c2ccccc2)CC1c1ccccc1 (stereo not given)	.	?	.	0%	-7%	0%	0%	-13%
COc1cccc(N2CCN(C(=O)CCNS(=O)(=O)c3ccc4c(c3)c(=O)n(C)c(=O)n4C)CC2)c1	.	0%[46.1 µM]	.	0%[46.1 µM]	.	-14%	-2%	-10%
COCCSc1nc2sc3c(c2c(=O)n1-c1ccccc1)CCN(C)C3	1%	18%	-3.6%	-6%	2%	-15%	-1%	1%
Cc1ccc(C)c(Nc2nc(-c3ccncc3)nc3ccccc23)c1	.	.	.	.	-2%	?	4%	-4%
Cc1ccc(CN2C(=O)CSC2c2cccnc2)cc1 (stereo not given)	.	8%	.	21%	4%	-3%	-1%	2%
C=C(C)Cn1c(-c2ccccc2)nc2ccccc21	3%	21%	2.6%	0%	-36%	-18%	-4%	?
COc1ccc(NC(=O)Cn2nnc3ccccc32)c([N+](=O)[O-])c1	.	-1%	.	-26%[46.1 µM]	3%	5%	-5%	13%
N#Cc1ccc(NC(=O)c2cc(S(=O)(=O)N3CCOCC3)ccc2N2CCCC2)cc1	.	4%	.	1%	.	-3%	-2%	1%
CC(C)CCC(CCNCc1ccccn1)c1ccc(Cl)cc1 (stereo not given)	.	?	.	?	-4%	-3%	1%	3%

Complete entries, quoted from the list. Values in the order: Cruzain noTriton	LASV entry inh	Cruzain Triton	Marburg entry inh	NS1 inh	StopGo reporter	SARS PLpro yeast	RE007 growth inh
O=C(N/N=C/c1ccncc1)c1cc2c(ccc3ccccc32)o1 reads -1%	-17%	-6.1%	?	-4%	-24%	-5%	-8%
CCCN(C(=O)c1ccc(N2CCCC2=O)cc1)C1CCS(=O)(=O)C1 (stereo not given) reads .	4%	.	2%	.	-15%	4%	10%

Continuation.
SMILES	Cruzain noTriton	LASV entry inh	Cruzain Triton	Marburg entry inh	NS1 inh	StopGo reporter	SARS PLpro yeast	RE007 growth inh
N#CCCn1cc(C(=O)Nc2ccccc2Cl)c(-c2ccc([N+](=O)[O-])cc2)n1	-14%	0%	-10%	?	19%	3%	-11%	-5%
COc1ccc(CCNC(=O)CCCc2ccccc2)cc1	.	5%[46.1 µM]	.	3%[46.1 µM]	-16%	33%[activator]	-1%	1%
CCc1cccc(Nc2ncnc3onc(-c4ccc(F)cc4)c23)c1	2%	4%[46.1 µM]	-10%	.	.	?	.	.
NC(=O)Nc1ccc(Nc2ccccc2)cc1	.	.	.	1%	6%	32%[activator]	-2%	2%
CCCn1c(N)c(C(=O)CSc2ncn[nH]2)c(=O)n(C)c1=O	.	10%	.	5%	.	-10%	-4%	-9%
CCOc1cc(-c2nnc(SCC(=O)NCc3ccccc3)nc2-c2ccc(OC)c(OCC)c2)ccc1OC	?	?	0.7%	.	.	-7%	.	.
CCOc1ccccc1N(CC(=O)NC1CCCC1)S(=O)(=O)c1ccc(C)cc1	.	-12%	.	?	-16%	5%	-3%	-2%
COc1ccc(Cc2nnc(NC(=O)c3ccco3)s2)cc1OC	-1%	2%	4.3%	-29%	-10%	-4%	-7%	21%
CCC(C)NC(=O)Cn1c(=O)n(-c2ccc(C)c(C)c2)c(=O)c2c(C)c(C(=O)N(CC)CC)sc21 (stereo not given)	-13%	3%[46.1 µM]	1.8%	.	.	-6%	.	.
O=C(NCC(c1ccc2c(c1)OCO2)N1CCN(c2ccccc2)CC1)C(=O)Nc1ccccc1F (stereo not given)	-19%	10%[46.1 µM]	-0.5%	.	.	-2%	.	.
O=C1C=CC(=O)N1c1ccc2ccccc2c1	.	-13%[46.1 µM]	.	-7%[46.1 µM]	.	15%	.	2.2µM*
O=C(NCc1ccc(Cl)cc1)c1cccc2c1C(=O)N(CC1CCCO1)C2 (stereo not given)	.	.	.	.	-47%	-30%	-15%	9%
CCOc1ccc(NS(=O)(=O)c2ccc(N)cc2)cc1	-5%	-6%	4.4%	?	4%	45%[activator]	-1%	8%
CN(Cc1cccc(C(F)(F)F)c1)Cc1nc(-c2cnccn2)no1	.	-1%[46.1 µM]	.	-6%[46.1 µM]	0%	-11%	1%	-4%
CCC1CCCCN1C(=O)c1cc(-c2ccc(Cl)c(Cl)c2)on1 (stereo not given)	12%	68%[14.3 µM]	-10%	7%	-77%	38%[activator]	-76%	3%
Cc1cccc(NC(=O)CSc2nc3c(oc4ccccc43)c(=O)n2C(C)C)c1	-25%	.	-4.1%	?	.	0%	.	.
COc1cc(NC(=O)c2ccc(NC(=O)N3CCSc4ncccc43)cc2)cc(OC)c1	-1%	15%[46.1 µM]	-9.0%	.	.	?	.	.
COc1ccc(S(=O)(=O)n2nc(C)c(S(=O)(=O)N3CCCCCC3)c2C)cc1	-2%	19%[46.1 µM]	-0.5%	.	.	-6%	.	.
CN1CCN(c2ccc(NC(=O)c3ccc(Cl)cc3Cl)cc2)CC1	.	.	.	.	17%	59%[activator]	1%	14%
CCOc1ccc(C2/C(=C(/O)c3ccc4c(c3)CC(C)O4)C(=O)C(=O)N2CC2CCCO2)cc1 (stereo not given)	.	-4%[46.1 µM]	.	.	29%	-11%	-1%	7%
COc1ccc(/C=N/Nc2cc(C)nc(-n3nc(C)cc3C)n2)cc1	?	?	-12%	16µM*	-25%	32µM*	?	?
COc1ccc(Br)cc1C1NC(=O)NC(C)=C1C(=O)N(C)C (stereo not given)	16%	-17%	1.2%	5%	11%	-21%	8%	1%[3.69 µM]
Cc1nnc(SCC(=O)Nc2cccc(C(F)(F)F)c2)[nH]c1=O	-6%	-16%	2.9%	23%	-7%	-13%	-14%	-8%
COCCNC(=S)N1CCC(C(=O)c2ccc3c(c2)OCCO3)CC1	.	-7%[46.1 µM]	.	?	.	13%	-2%	2%
Cc1cn(C2OC(COC(=O)c3ccccc3)C(O)C2Cl)c(=O)[nH]c1=O (stereo not given)	.	.	.	.	2%	-24%	0%	-9%
Cc1nc(NC(=O)CN2CCN(c3cccc(Cl)c3)CC2)sc1C(=O)N(C)C	.	.	.	.	-11%	0%	-11%	8%
COc1ccnc(Oc2ccccc2)c1-c1ncn[nH]1	.	22%	.	15%[46.1 µM]	-3%	-22%	-1%	22%
CCNC(=O)C12CCC(C)(C(=O)C1Br)C2(C)C (stereo not given)	-7%	26%	-4.1%	7%	2%	-19%	-3%	-27%
COC(=O)c1cc(-c2ccc(S(=O)(=O)N3CCCCC3)cc2)c(C(F)(F)F)s1	.	.	.	.	8%	-30%	0%	0%
Cc1cc(NC(=O)c2ccc(S(=O)(=O)N(C)CC3CCCO3)cc2)no1 (stereo not given)	.	-2%	.	?	.	14%	-1%	-2%
NC(=O)C1CCN(C(=O)c2cccc(S(=O)(=O)N3CCCC3)c2)CC1	.	0%[46.1 µM]	.	2%	.	8%	-6%	-11%
Cc1nc(-c2cc(C#N)c(Sc3ccc(Cl)cc3Cl)nc2C)cs1	.	-16%	.	-3%[46.1 µM]	-3%	-12%	0%	9%
COC(=O)C1=C(C)NC(C)=C(C(=O)OC)C1/C=C/c1ccccc1	-5%	-11%	-4.6%	-28%	-25%	-4%	0%	-11%
Cc1ccc2[nH]c(=O)c(COC(=O)C3CCCO3)cc2c1 (stereo not given)	-5%	-4%	-1.6%	?	-7%	-12%	7%	9%
COc1ccc(CCNC(=O)COc2ccc(S(=O)(=O)NC(C)C)cc2Cl)cc1OC	25%	?	0.3%	?	-14%	11%	5%	20%
Cc1cccc(-n2ncc(C(=O)N3CCC(C)CC3)c2C2CCN(C(=O)OC(C)(C)C)CC2)c1	-7%	5%[46.1 µM]	-0.2%	.	.	-5%	.	.
Cc1ccc(NC(=O)Cn2c([N+](=O)[O-])cnc2C)cc1	.	22%	.	-7%	2%	-11%	1%	-6%
COc1ccc(S(=O)(=O)N2CCN(C(=O)c3cc(-c4ccc(Br)cc4)n[nH]3)CC2)cc1OC	.	10µM*	.	?	23%	?	-5%	-4%
O=C(NCCN1CCOCC1)c1c(O)nc2ccccn2c1=O	.	.	.	.	-12%	?	-3%	-13%
COc1cc(C)nc(Oc2ccc(OCc3ccccc3)nn2)n1	6%	-1%	4.4%	14%	0%	-8%	-1%	13%
Fc1ccccc1-c1ccc(/C=N/Nc2nc3ccccc3[nH]2)o1	?	?	-28%	?	-16%	-34%	-34%	?
N#C/C(=C/c1ccc([N+](=O)[O-])cc1)C(=O)Nc1ccccc1O	-5%	14%	-3.4%	?	-10%	-11%	-56%	0%
O=C(Nc1ccccc1NC(=O)c1c(F)cccc1F)c1c(F)cccc1F	.	4%	.	?	3%	-13%	0%	6%
COC(=O)C1=C(C)N2C(=O)CSC2=NC1c1ccc2c(c1)OCO2 (stereo not given)	-4%	?	-3.6%	15%	13µM*	0%	-7%	22%
COc1ccc(C2c3c(oc4ccc(C)cc4c3=O)C(=O)N2CCCN2CCOCC2)cc1OC (stereo not given)	-14%	-1%[46.1 µM]	-0.6%	.	.	-2%	.	.
CCN(c1ccc(OC)cc1)S(=O)(=O)c1ccc2[nH]c(=O)ccc2c1	-23%	?	-6.9%	.	.	-25%	.	.
COc1cccc(C2=NNC(=NCc3ccccc3)SC2)c1	.	?	.	?	.	15%	-2%	7%

High-throughput results as filed in PubChem BioAssay.
